RE007 growth inh: less growth of the S. pombe RE007 Vpr strain. S. pombe RE007 Vpr strain, BacTiter-Glo ATP luminescence, 24 h; control for the full effect not named in the record. Potency, µM (titrated, usually from 92.2 µM), without a hit: at the top dose activity change, negative = less growth. 360,000 tested, 0.21% active. AID 651644; active = well fitted falling curve with a large enough effect; inconclusive = small, poorly fitted or top-dose-only effect; inactive = no such curve, though single readings can be large or run the other way;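 further: on the % scale 0 is the no-effect control and ±100 the full control effect; nearly all actives have a fitted effect of over 50% in size; the assay follows cell death caused by Vpr and the record does not say whether a fall means rescue or toxicity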
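Fission yeast RE007 carrying one integrated HIV-1 vpr copy, seeded at OD 0.01 in PMG+AL medium with 23 nL pinned compound. Grown 24 h at 30 degrees; viability read by BacTiter-Glo luminescence after 5 min.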
Cruzain Triton: inhibitors of Trypanosoma cruzi cruzain with detergent. 200,000 tested, 0.43% active. P25779. AID 1478. purified cruzain, Z-FR-AMC fluorescence, 0.01% Triton. Potency, µM, for inactives: max response, negative = inhibition, usual class: inhibitors;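 further: plate controls were neutral wells for no effect and buffer without enzyme for full effect; nearly all actives have a fitted effect of over 40% in size; top concentration of the series not given in the record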
Target sequence (P25779 123-467 limits assumed): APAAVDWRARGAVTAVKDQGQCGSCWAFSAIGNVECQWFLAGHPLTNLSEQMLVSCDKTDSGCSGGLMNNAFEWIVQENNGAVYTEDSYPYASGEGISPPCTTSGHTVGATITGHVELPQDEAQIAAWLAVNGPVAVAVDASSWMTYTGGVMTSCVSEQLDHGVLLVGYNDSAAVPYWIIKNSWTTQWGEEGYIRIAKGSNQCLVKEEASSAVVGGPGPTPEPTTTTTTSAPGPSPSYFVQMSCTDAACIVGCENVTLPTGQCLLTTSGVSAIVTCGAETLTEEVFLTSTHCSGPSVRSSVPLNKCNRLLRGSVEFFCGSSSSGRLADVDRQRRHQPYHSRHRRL
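15 min RT preincubation of 1.5 nM cruzain with compound, then 2 uM Z-FR-AMC added; kinetic AMC fluorescence, 60 s delta. Triton X-100 0.01%, pH 5.5.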
StopGo reporter: FMDV 2A StopGo reporter, luciferase signal; human cells with a luciferase reporter of 2A StopGo recoding; control for the full effect not named in the record; Potency, µM (highest dose often 57.9 µM), without a hit: at the highest dose signal change, negative = less light; 410,000 tested, 1.2% active; AID 1159524; active = well fitted falling curve with a large enough effect; inconclusive = small, poorly fitted or top-dose-only effect; inactive = no such curve, though single readings can be large or run the other way; tested in HEK293T cells; further: on the % scale 0 is the no-effect control and ±100 the full control effect; nearly all actives have a fitted effect of over 45% in size; luciferase light after 4 h
LASV entry inh: inhibitors of Lassa virus binding or cell entry; Lassa virus pseudotype entry inhibition, cell reporter; control for the full effect not named in the record; Potency, µM (titrated, usually from 37.9 µM), for the others: at the highest dose activity change, negative = inhibition, hits mostly inhibitors; 300,000 tested, 1.2% active; AID 540256; active means well fitted inhibition curve with a large enough effect; inconclusive means small, poorly fitted or top-dose-only effect, or effect the other way; inactive means flat fitted curve, though single readings scatter; tested in HEK293 cells; further: on the % scale 0 is the no-effect control and ±100 the full control effect; nearly all actives have a fitted effect of over 50% in size; luciferase read-out
SARS PLpro yeast: SARS-CoV PLP inhibition in yeast; S. cerevisiae expressing SARS-CoV PLpro, growth rescue; control for the full effect not named in the record; Potency, µM (highest dose often 32.9 µM), for the others: top-dose activity, positive = growth rescue; 330,000 tested, 0.19% active; active means well fitted rising curve with a large enough effect; inconclusive means small, poorly fitted or top-dose-only effect; inactive means no such curve, though single readings can be large or run the other way; further: 0% is about no effect; nearly all actives have a fitted effect of over 55% in size; growth read by luminescence after 48 h
NS1 function inh: inhibitors of influenza NS1 protein function | 270,000 tested, 0.4% active | Potency, µM (top dose mostly 46.1 µM), for the others: top-dose activity, positive = more growth | S. cerevisiae slowed by influenza A NS1, growth recovery by OD600; active means well fitted rising curve with a large enough effect; inconclusive means small, poorly fitted or top-dose-only effect; inactive means no such curve, though single readings can be large or run the other way; further: nearly all actives have a fitted effect of over 50% in size
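Recovery from NS1-induced slow growth read by OD600 in budding yeast switched to galactose assay medium (pH 6.0, -URA) at 1:100 dilution. Compound 23 nl per well; the matching strain lacking NS1 serves as control.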
Marburg entry inh: Marburg virus entry inhibition. Marburg virus pseudotyped entry inhibition, cell reporter; control for the full effect not named in the record; about a third of the inactives were read at about 46 µM. Potency, µM (doses to about 37.8 µM), for inactives: top-dose activity change, negative = inhibition, hits mostly inhibitors. 300,000 tested, 1.8% active. AID 540276; active = well fitted inhibition curve with a large enough effect; inconclusive = small, poorly fitted or top-dose-only effect, or effect the other way; inactive = flat fitted curve, though single readings scatter; tested in HEK293 cells; about a fifth of its hits are not listed in these tables; further: on the % scale 0 is the no-effect control and ±100 the full control effect; luciferase read-out
Cruzain noTriton: cruzain (T. cruzi) inhibition without detergent | Potency, µM, for the others: max response, negative = inhibition, most hits filed as inhibitors | 200,000 tested, 2.3% active | purified cruzain, Z-FR-AMC fluorescence, no detergent;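 further: plate controls were enzyme without inhibitor for no effect and buffer without enzyme for full effect; nearly all actives have a fitted effect of over 40% in size; top concentration of the series not given in the record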
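Detergent-free condition (0.00005% Triton X-100) in acetate buffer pH 5.5 with DTT. 1.5 nM enzyme and compound were pre-mixed 15 min, then 2 uM Z-FR-AMC substrate added; reaction progress from fluorescence change between first and third reads (60 s).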
* = called active by the depositor; ? = inconclusive; / = not tested or not shown; [ ] = remark or other dose. Unless noted, the call rests on the fitted dose curve; in most records, active means well fitted curve in the direction sought with a large enough effect; inconclusive means small, poorly fitted or top-dose-only effect, or another doubt; inactive means no such curve, though single readings can be large; an effect the other way counts as inactive or inconclusive. Potency means the concentration at half of the fitted maximal effect.

SMILES	RE007 growth inh	Cruzain Triton	StopGo reporter	LASV entry inh	SARS PLpro yeast	NS1 function inh	Marburg entry inh	Cruzain noTriton
CCCCCc1c(O)nc(SCC(=O)NCC2CCCO2)[nH]c1=O (stereo not given)	-4%	-2.4%	-16%	7%	-19%	1%	/	-3%
COc1ccc(-c2cc(=O)oc3c(C)c(OCC(=O)Nc4cccnc4)ccc23)cc1	-2%	/	0%	/	2%	1%	/	/
C/C(=N\NC(=O)CCC(=O)Nc1ccc(C)c(C)c1)C1CC1	8%	/	3%	/	-1%	11%	/	/
COc1ccc(C2C(C(C)=O)=C(C)Nc3ncnn32)cc1[N+](=O)[O-] (stereo not given)	13%	/	-11%	2%[46.1 µM]	1%	2%	7%[46.1 µM]	/
Cc1csc(SCC(=O)NCc2ccc3c(c2)OCO3)n1	-15%	/	1%	/	-5%	3%	/	/
Cc1ccc(N2CCN(C(=O)c3cccs3)CC2)cc1C	-20%	/	20%	22%	-2%	-22%	3%	/
Brc1cccc(-c2cnc3n2CCCCC3)c1	1%	0.8%	?	-28%	14%	?	-28%[46.1 µM]	-16%
O=C(O)/C=C\C(=O)Nc1ccccc1C#Cc1ccc(Br)cc1	45µM*	9.2%	14%	-1%	-29%	-34%	-1%	24%
COCCCNC(=S)Nc1cccc(SC)c1	2%	/	46%[activator]	11%	0%	5%	4%[46.1 µM]	/
CC(=O)c1ccc(N2CCN(C(=S)Nc3cccc(F)c3)CC2)cc1	-22%	-2.3%	-23%	-29%	3%	-3%	-10%	-7%
Nc1ccc(C(=O)CC(=O)Nc2ccc(Cl)cc2)cc1	-14%	/	26%	1%[46.1 µM]	14%	6%	?	/
CCOc1ccccc1NC(=O)C(Sc1nnc2ccccn12)c1ccccc1 (stereo not given)	-19%	-1.5%	-19%	12%	-2%	-10%	9%	9%
Cc1ccc(N2CC(C(=O)Nc3ccc4c(c3)OCCO4)CC2=O)cc1C (stereo not given)	-4%	/	?	5%	1%	0%	-18%[46.1 µM]	/
c1ccc(-c2ccc(-c3n(-c4ccccn4)c4ccccc4[n+]3-c3ccccn3)cc2)cc1	2%	/	14µM*	?	0%	/	?	/
O=C(O)CSCC(=O)N1CCCCC1	?	/	6%	/	1%	0%	-9%[46.1 µM]	/
Cc1ccc(C(C(=O)NC2CCCC2)N(Cc2ccccc2)C(=O)c2csnn2)o1 (stereo not given)	4%	/	17%	24%[46.1 µM]	0%	19%	-23%[46.1 µM]	/
CCCc1ccc2oc(C(=O)NCCN3CCCC(O)C3)c(C)c2c1 (stereo not given)	1%	/	7%	?	-1%	20%	?	/
O=C(c1ccc(F)cc1)N(Cc1ccco1)C1CCS(=O)(=O)C1 (stereo not given)	6%	/	-1%	?	1%	0%	-16%[46.1 µM]	/
COc1ccc(N2CC(NC(=O)COc3ccccc3C)CC2=O)cc1OC (stereo not given)	/	-0.7%	-1%	?	/	/	/	5%
COc1cc(C)c(S(=O)(=O)n2ccc(C)n2)cc1C	13%	-2.5%	2%	-11%	1%	-55%	-21%	-5%
COc1ccc(OC)c(NC(=O)C23CCC(C)(C(=O)O2)C3(C)C)c1 (stereo not given)	9%	-1.1%	-3%	2%	-1%	-6%	4%[46.1 µM]	1%
O=C(NC1CCCCC1)c1ccc(S(=O)(=O)NCc2cccnc2)cc1	-5%	3.2%	-16%	?	-4%	?	-19%	15%
Cc1ccc(NC(=S)N(Cc2ccco2)C2CCN(C(C)C)CC2)cc1	-3%	-1.8%	-3%	-18%	23%	4%	?	-7%
COc1ccc(S(=O)(=O)NCc2ccc(C(=O)O)cc2)cc1	7%	0.3%	-3%	5%	0%	4%	17%	-10%
CC(C)N(Cc1ccccc1)C(=O)COc1ccccc1	0%	/	4%	/	2%	2%	/	/
Continued.
SMILES	RE007 growth inh	Cruzain Triton	StopGo reporter	LASV entry inh	SARS PLpro yeast	NS1 function inh	Marburg entry inh	Cruzain noTriton
Cn1ncc2c(Nc3cccc4ccccc34)ncnc21	-15%	-2.6%	15%	19%	3%	-8%	6%[46.1 µM]	0%
COc1cccc(NC(=O)CN(C)CC(=O)Nc2ccc3c(c2)OCO3)c1	39%	/	-8%	-2%[46.1 µM]	11%	/	3%[46.1 µM]	/
CCOc1cccc(/C=N/NC(=O)c2cccnc2)c1O	38%	/	52%[activator]	/	0%	-17%	/	/
Cc1cc(C)c(NC(=O)CSc2nnc(SCC(=O)Nc3c(C)cc(C)cc3C)n2N)c(C)c1	-4%	-1.9%	-15%	3%	8%	6%	-13%	12%
COc1ccc(NC(=O)CNS(=O)(=O)c2ccc3nc(C)sc3c2)c(OC)c1	-14%	10%	-23%	0%	6%	-4%	16%	4%
CC(C)(C)c1ccc(C(=O)NC(=S)NNC(=O)c2cccs2)cc1	/	-4.0%	-9%	?	-29%	-24%	?	?
CCOc1ccc(C(=O)N2CCCC(c3nc(-c4ccc(C)o4)no3)C2)cc1 (stereo not given)	6%	/	-3%	-10%	1%	-6%	-2%	/
CCc1ccc(CNC(=O)c2nn(C)c3c2CS(=O)(=O)c2ccccc2-3)cc1	-1%	/	-17%	/	-18%	11%	/	/
CCSc1nc2c([nH]1)c(=O)n(C)c(=S)n2C	-4%	/	12%	1%[46.1 µM]	/	/	19%[46.1 µM]	/
O=C(Cn1c(=O)oc2cccnc21)Nc1ccccc1Oc1ccc(Cl)cc1Cl	15%	/	5%	-26%[46.1 µM]	-6%	0%	?	/
COc1ccc(CC(NC(C)=O)C(=O)N2CCN(C(=O)N(C(C)C)C(C)C)CC2)cc1 (stereo not given)	-4%	0.5%	-11%	-2%	5%	3%	0%	15%
O=C(CCCN1CCC(O)(c2ccc(Br)cc2)CC1)c1ccc(F)cc1	-24%[18.4 µM]	-6.9%	-19%	/	/	/	/	-1%
CCC(=O)Nc1nc(C)c(-c2csc(Nc3ccc(C(=O)O)cc3)n2)s1	-13%	/	6%	-16%[46.1 µM]	0%	0%	8%[46.1 µM]	/
CCN(CC)CCCN(CC(=O)N(C)Cc1ccccc1)C(=O)c1ccc([N+](=O)[O-])cc1	3%	/	-2%	/	-4%	11%	/	/
CC(=O)N(Cc1ccccc1C)c1cccc(C)c1C	-3%	/	0%	6%	0%	-3%	?	/
CCNC(=S)NCc1ccc2c(c1)OCO2	2%	-1.5%	0%	-3%	19%	0%	?	-12%
O=C(NCc1nnnn1-c1ccc(F)c(F)c1)C(=O)c1c[nH]c2ccccc12	1%	/	-18%	-16%	2%	/	7%	/
CCN(CC)C(=O)COn1c(SCC(=O)N(CC)CC)nc2ccccc2c1=O	-3%	3.8%	-7%	-5%	-3%	0%	-20%	-1%
CCOc1ccc(C)cc1S(=O)(=O)n1ccc(C)n1	7%	-1.2%	-2%	12%	-10%	-36%	25%	-1%
CCOCCc1nn2c(=O)cc(COC(=O)CNC(=O)c3ccc(C(C)(C)C)cc3)nc2s1	/	1.2%	-9%	4%[46.1 µM]	/	/	/	?
Nc1cc2[nH]c(=O)c3ccccc3c2cc1Br	-1%	/	-2%	9%	/	/	?	/
CCOC(=O)C1CCN(S(=O)(=O)c2ccc3[nH]c(=O)ccc3c2)CC1	-15%	/	-20%	/	-1%	11%	/	/
COc1ccc(NC(=O)C(CCSC)NC(N)=O)cc1Cl (stereo not given)	10%	/	19%	?	-3%	/	13%[46.1 µM]	/
Cc1ccc(CN2CCC(c3cc(-c4ccc(Cl)cc4)n[nH]3)CC2)cc1	15%	/	?	?	0%	-2%	?	/
Cc1cc(C)nc(OC(C(=O)O)C(OCc2ccccc2)(c2ccccc2)c2ccccc2)n1 (stereo not given)	2%	/	-23%	/	-4%	17%	/	/
New compounds follow:
SMILES	RE007 growth inh	Cruzain Triton	StopGo reporter	LASV entry inh	SARS PLpro yeast	NS1 function inh	Marburg entry inh	Cruzain noTriton
CCC(CC)NC(=O)Cc1ccc(S(=O)(=O)N2CCOCC2)s1	20%	-0.1%	-1%	-8%	5%	18%	19%	4%
COc1cc(C(=O)NCCN=C2NS(=O)(=O)c3ccccc32)cc(OC)c1OC	4%	/	3%	?	1%	-3%	15%	/
COc1ccc(N=c2scc(C)n2CCCN2CCCC2=O)cc1	10%	/	-5%	8%	-2%	/	1%	/
Cn1cc(S(=O)(=O)N2CCOCC2)cc1C(=O)Nc1ccc(Cl)cc1	2%	/	0%	/	5%	-16%	/	/
Cc1ccccc1N1C(=O)CC(=O)N(c2ccccc2C)C1=O	13%	0.7%	-13%	?	12%	?	6%	2%
Cc1cccc(NC(=S)NNC(=O)c2ccc3c(c2)OCO3)c1	?	-0.4%	83%[activator]	?	-8%	-3%	?	0%
CC(=O)n1cc(C=C2C(=O)NC(=O)NC2=O)c2ccccc21	5%	/	?	/	7%	-2%	/	/
O=C1CCN(Cc2ccc(Br)cc2)CCN1CCO	-18%	/	-22%	/	-3%	0%	/	/
CC(=O)N1CCc2cc(S(=O)(=O)NC(Cc3ccccc3)C(=O)O)ccc21 (stereo not given)	-1%	/	0%	/	4%	-3%	/	/
O=C(NC(=S)N1CCN(c2nc(-c3ccccc3)cs2)CC1)c1cccnc1	/	-15%	-24%	30%	-27%	17%	16%	10%
CC(NS(=O)(=O)c1ccccc1)C(N)=O (stereo not given)	-7%	4.7%	11%	-9%	6%	?	-12%	-9%
N#C/C(=C\c1ccc(-c2cc(Cl)ccc2Cl)o1)C(=O)Nc1ccccc1C(=O)O	/	-4.0%	57%[activator]	?	/	/	/	-3%
CN(CC(=O)Nc1ccc(F)cc1)C(=O)COC(=O)C1=COCCO1	-10%	/	-29%	4%	1%	/	-12%	/

Structures above with a nitro group on carbon, in the order listed:
SMILES	RE007 growth inh	Cruzain Triton	StopGo reporter	LASV entry inh	SARS PLpro yeast	NS1 function inh	Marburg entry inh	Cruzain noTriton
COc1ccc(C2C(C(C)=O)=C(C)Nc3ncnn32)cc1[N+](=O)[O-] (stereo not given)	13%	/	-11%	2%[46.1 µM]	1%	2%	7%[46.1 µM]	/
CCN(CC)CCCN(CC(=O)N(C)Cc1ccccc1)C(=O)c1ccc([N+](=O)[O-])cc1	3%	/	-2%	/	-4%	11%	/	/
